Bioassay records (PubChem)
PKD1 kinase inh: inhibitors of human PKD1 kinase, biochemical, fluorescence polarization; inhibition, %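 (about 10 µM by stock and volumes)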; actives 0.056% (n = 200,000); PKD1 kinase fluorescence polarization assay; Serine/threonine-protein kinase D1 (Homo sapiens), Q15139;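 active means inhibition of 50% or more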;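 further: controls were vehicle for no effect and a reference inhibitor for full effect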
Target sequence (Q15139 whole entry, looked up): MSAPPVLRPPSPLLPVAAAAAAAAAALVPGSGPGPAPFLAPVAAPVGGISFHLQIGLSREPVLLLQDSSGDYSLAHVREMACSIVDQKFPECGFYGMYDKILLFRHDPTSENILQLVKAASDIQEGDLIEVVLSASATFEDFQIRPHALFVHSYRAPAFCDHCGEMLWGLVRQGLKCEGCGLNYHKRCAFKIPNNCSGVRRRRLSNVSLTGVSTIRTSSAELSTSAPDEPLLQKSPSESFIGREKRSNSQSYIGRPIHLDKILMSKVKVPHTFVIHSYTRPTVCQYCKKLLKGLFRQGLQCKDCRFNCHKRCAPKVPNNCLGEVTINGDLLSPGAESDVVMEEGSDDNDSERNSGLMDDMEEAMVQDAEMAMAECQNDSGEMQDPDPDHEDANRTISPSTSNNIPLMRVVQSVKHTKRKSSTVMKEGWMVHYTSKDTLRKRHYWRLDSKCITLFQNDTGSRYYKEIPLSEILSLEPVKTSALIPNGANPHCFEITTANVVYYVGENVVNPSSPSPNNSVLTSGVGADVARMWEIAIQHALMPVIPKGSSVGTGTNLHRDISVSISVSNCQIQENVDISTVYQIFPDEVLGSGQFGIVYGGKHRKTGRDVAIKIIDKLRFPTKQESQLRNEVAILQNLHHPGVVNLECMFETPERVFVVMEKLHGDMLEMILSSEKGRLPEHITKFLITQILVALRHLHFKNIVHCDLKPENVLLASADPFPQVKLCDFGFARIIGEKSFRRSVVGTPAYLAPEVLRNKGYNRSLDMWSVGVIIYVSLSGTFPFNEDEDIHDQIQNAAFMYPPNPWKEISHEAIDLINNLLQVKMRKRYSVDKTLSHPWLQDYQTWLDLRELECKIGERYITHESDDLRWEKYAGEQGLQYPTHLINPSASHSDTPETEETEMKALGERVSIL
RGS16-Gao: modulators of RGS16 binding to Galphao, primary screen, biochemical, human proteins, multiplexed bead flow cytometry; Regulator of G-protein signaling 16 (Homo sapiens) + Guanine nucleotide-binding protein …; bead-based flow cytometry RGS16-Galphao binding, fluorescence; actives lie on both sides; binding response (% of control), % at 10 µM; actives 0.38% (n = 220,000); AID 1441, 2008;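 active means below 25% or above 175%, edge rows of some plates excepted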;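 further: Galphao activated by GDP with aluminum fluoride before binding; 100% = wells without compound and 0% = beads without RGS; some results beyond the cut were filed as inactive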
Insulin prom inh: inhibitors of insulin promoter-driven GFP, primary screen, imaging, TRM-6 cells (human fetal islet line), eGFP reporter, cell count | reporter expression induced with tamoxifen | actives 0.9% (n = 130,000) | AID 1273, 2008 | inhibition, % at 2 µM;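 active means inhibition above the mean plus 3 SD, with well images judged a real hit on visual review, cut at about 60% in these data, passing the limit was not always enough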
HSV augment: enhancers of HSV replication in host cells, fold increase, host cell viability; maximum fold increase; HSV replication augmentation in cells; AID 1956, 2009; actives 0.005% (n = 220,000);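 active means peak rise of 1.5-fold or more in the series; tested in PC3 cells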;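 further: first round at 10 µM; read as green reporter fluorescence; hits show the peak of a series up to 25 µM; 1 = signal of infected wells without compound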
GALR2 ag: GALR2 receptor agonists, primary screen, cell-based; actives 0.48% (n = 140,000); AID 803, 2007; activation, %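 (tested at 5 µM)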; GALR2-expressing cells, agonist activation read-out;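 active means above mean plus 3 SD of all compounds, about 5% in these data, not always enough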;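 further: 0% = vehicle buffer wells and 100% = reference agonist at full effect; tested in CHO reporter cells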
Insulin prom inh cell count: also measured in Insulin prom inh; calls as there; normalized cell count, %; measured here: cell count, toxicity; reference of the scale not given here;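 cells exposed to compound for 48 h; stained nuclei by imaging scaled within each plate; lower means fewer cells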
HSV augment primary fold: also measured in HSV augment; calls as there; fold increase; compound at 10 µM; measured here: primary screen fold increase 10 uM; tested in PC3 cells;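 GFP signal in the first replicate; 1 = infected wells without compound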
Starred values were filed as active, the others as inactive; i = inactive; . = not tested or not shown.

structure	HSV augment	Insulin prom inh cell count	Insulin prom inh	GALR2 ag	PKD1 kinase inh	RGS16-Gao	HSV augment primary fold
Cc1cccc(N2CCN(C(=O)c3ccc4nc(N5CCCCC5)sc4c3)CC2)c1C	i	.	.	.	.	102	1
S=c1[nH]nc(-c2cccc(Cl)c2)n1Cc1ccccc1	i	114	9	-0.8	9	106	1
Cc1ccc(-c2cc(-c3ccccc3)[nH]c(=S)c2C#N)cc1	i	115	34	-2.6	-5	104	0.89
O=C(O)c1ccc(N=NN2CCCCC2)cc1	i	115	33	.	-2	98	0.88
COc1ccc(CC(=O)OCC(=O)NCc2ccccc2Cl)cc1	i	.	.	.	-1	100	1.1
COc1cc(C=O)cc(OC)c1OS(=O)(=O)c1ccc(NC(C)=O)cc1	i	126	-31	-0.2	-9	88	1.1
CC(C)CC(NS(=O)(=O)c1ccc2c(c1)oc(=O)n2C)C(=O)NCc1cccnc1 (centres undefined)	i	.	.	-3.9	-4	99	0.89
CCOC(=O)CSc1nnc(-c2cccnc2)n1C	i	.	.	.	-4	104	0.95
Cc1ccc(/C=N/n2c(COc3ccccc3)n[nH]c2=S)o1	i	.	.	.	-8	97	0.94
CCOC(=O)/C(=N\Nc1ccccc1[N+](=O)[O-])c1csc(N)n1	i	.	.	.	-2	104	0.75
Cn1c(=O)c2c(nc(NCCc3ccccc3)n2Cc2ccccc2)n(C)c1=O	i	79	-42	-2.5	-4	110	0.88
CCOC(=O)c1[nH]c2ccc(C)cc2c1N=CN(CC)CC	i	.	.	-2.9	-15	110	0.98
C=CCc1ccc(OCc2ccc(C(=O)OC)o2)c(OC)c1	i	126	22	-1.2	0	106	0.97
COc1ccc([N+](=O)[O-])cc1NC(=O)COC(=O)Cc1cc(OC)c(OC)c(OC)c1	i	105	-64	-0.8	1	100	1
COc1cnc(-c2cccc(C(F)(F)F)c2)nc1OC	i	.	.	.	-4	105	0.89
CCCCCOC(=O)c1ccc(N2C(=O)C3C4C=CC(C4)C3C2=O)cc1 (centres undefined)	i	115	-20	-0.8	-4	102	0.94
CCCC(=O)Nc1cc(C)c(NC(=O)c2ccccn2)cn1	i	.	.	-0.6	-8	83	0.84
CC(NC(=O)Cc1cccs1)C(c1cccs1)N1CCN(c2ccccc2F)CC1 (centres undefined)	i	.	.	-2.5	0	101	1
Cc1cc(NS(=O)(=O)c2ccccc2)c(C)c(Cl)c1O	i	.	.	.	.	102	0.97
C=CCNC(=S)NNC(=O)c1cccn(Cc2cccc(Cl)c2)c1=O	i	82	53	-1.4	7	103	0.58
CCNC(=O)COC(=O)/C=C/c1cccs1	i	.	.	.	-3	104	0.86
CC(C)CSc1nnc2[nH]c(=O)cc(N)n12	i	107	35	-0.6	4	113	1
O=C(O)/C=C/c1cn(Cc2ccccc2)nc1-c1ccccc1	i	128	24	-1.3	-5	100	0.92
O=C(CSc1nnc(COc2ccccc2)n1-c1ccccc1)c1cccs1	i	.	.	-0.7	1	98	0.88
Cc1ccc2[nH]c3c(c2c1)CN(C(=O)CN1CCN(C(=O)c2ccco2)CC1)CC3	i	.	.	.	.	99	1.1
c1ccc2c(c1)OCC(c1nnc3n1-c1ccccc1SC3)O2 (centres undefined)	i	.	.	-3.1	-2	92	0.82
COC(=O)C1=C(C)N(CC(C)C)C(=O)C1	i	122	-7	1.1	-2	102	0.8
CN(C)/C=C/C(=O)c1ccc(Cl)c([N+](=O)[O-])c1	i	.	.	.	4	101	1.1
O=C(N1CCOCC1)N1CCOCC1	i	119	-100	-0.2	-11	64	0.77
Cc1cc(C(=O)COc2ccccc2[N+](=O)[O-])c(C)n1C1CC1	i	.	.	.	-7	92	1.1
COc1ccc(-c2cc(C3CCN(Cc4cccc(C(F)(F)F)c4)CC3)[nH]n2)cc1	i	.	.	.	-8	99	0.83
CCCn1c(=N)c(C(=O)NCc2ccc3c(c2)OCO3)cc2c(=O)n3cccc(C)c3nc21	i	120	3	0.3	0	91	0.58
CC(=O)c1ccc(-n2c(CCC(=O)O)ccc2-c2cccs2)cc1	i	116	-63	-1.2	-3	100	0.93
Cc1cc(C)nc(N2CCCC(C(=O)NCCc3cccc(F)c3)C2)n1 (centres undefined)	i	.	.	-0.9	3	103	0.82
CCOC(=O)CNC(=O)N1c2ccccc2Sc2ccccc21	i	.	.	.	1	100	0.93
O=C(NCc1nc(-c2ccc(C(F)(F)F)cc2)no1)Nc1cc(Cl)cc(Cl)c1	i	.	.	.	.	95	0.77
CC(C)(C)NC(=O)CN(Cc1cccnc1)C(=O)c1csnn1	i	.	.	-0.4	10	98	0.87
OC(CNc1nc2ccccc2s1)c1ccccc1 (centres undefined)	i	.	.	-2.2	-5	105	0.91
Cc1cc(=O)[nH]c(NN=C2C3CC4CC(C3)CC2C4)n1	i	.	.	.	.	98	1.1
COc1ccc(CC2(CO)CCN(Cc3cc4ccccc4o3)CC2)cc1	i	.	.	.	1	95	0.91
Cn1cc(Cl)c(C(=O)Nc2cnn(Cc3ccc(F)cc3)c2)n1	i	148	17	0.7	2	116	0.99
CCOC(=O)COc1ccccc1-c1ccno1	i	80	21	-2.2	-13	110	0.8
O=[N+]([O-])c1cc(-c2nnc(Nc3ccc(O)cc3)c3ccccc23)ccc1N1CCOCC1	i	.	.	-0.8	-3	103	0.68
CCn1c(NCc2cc(Br)ccc2NS(=O)(=O)c2ccc(C)cc2)nc2ccccc21	i	107	-37	0.4	-7	103	0.85
O=C(Nc1ccccc1C(=O)N/N=C/c1ccco1)c1ccc(F)cc1	i	119	31	-1.1	-3	69	0.88
COCC(=O)/C=C1\Sc2ccccc2N1C	i	104	-12	-1.6	-2	102	0.89
c1csc(-c2nnc(N3CCOCC3)c3ccccc23)c1	i	.	.	.	1	96	0.98
COc1ccc(C(=O)NNC(=O)c2ccccc2[N+](=O)[O-])cc1	i	.	.	-0.7	-3	115	0.99
O=C(c1cccc(C(F)(F)F)c1)C1CCCN(C(=O)CCn2cnnn2)C1 (centres undefined)	i	.	.	.	.	109	0.89
Cc1cc(Nc2nc3ccccc3nc2Cl)n(-c2ccccc2)n1	i	74	-38	1.6	-6	95	0.62
CC(C)CN1CCNC(=O)C1CC(=O)NCCc1cnn(-c2ccccc2)c1 (centres undefined)	i	.	.	.	-12	100	0.9
Cc1ccc(-n2c(C)cc(C(=O)NS(=O)(=O)c3ccc(C)cc3)c2C)cc1	i	.	.	-0.5	-1	87	1
COc1ccc(-c2[nH]n(-c3ccc([N+](=O)[O-])cc3)c(=O)c2C=NCc2ccc(F)cc2)cc1	i	105	53	-0.5	-7	104	1.1
CC(=O)NC1(c2ccc(F)cc2)CCN(C(=O)Nc2ccc(F)cc2F)CC1	i	70	-3	-4.0	-9	98	1
CCC(C)n1c(SCC(=O)Nc2cc(C(C)(C)C)nn2-c2ccccc2)nc2ccccc2c1=O (centres undefined)	i	92	0	0.1	4	100	0.76
COc1cc(/C=C2\C(=O)N(C)C(=S)N2C)ccc1O	i	113	-40	-0.1	-1	109	1.3
CC1CCN(S(=O)(=O)c2ccc(C(=O)NNC(=O)C3CC3)cc2)CC1	i	.	.	.	1	102	1
CCCNC(=O)COC(=O)c1cc2c(=O)n3ccccc3nc2s1	i	46	-138	1.0	0	102	1
O=C(COC(=O)C1=Cc2ccccc2OC1)NCc1ccco1	i	.	.	.	7	108	0.88
CCc1ccc(C(=O)CN2C(=O)NC(C)(c3ccc(C)cc3)C2=O)cc1 (centres undefined)	i	89	-70	.	3	95	0.91

Next entries.
structure	HSV augment	Insulin prom inh cell count	Insulin prom inh	GALR2 ag	PKD1 kinase inh	RGS16-Gao	HSV augment primary fold
O=C(/C=C/c1ccccn1)c1ccc(Br)cc1O	i	102	-7	-0.4	7	102	0.83
COc1ccc(CN(C(=O)c2nsc(Cl)c2Cl)C(C(=O)NC2CCCCC2)c2ccc(OC)cc2)cc1 (centres undefined)	i	115	-57	-1.5	13	101	1.2
COc1cc(CC(=O)Nc2ccc(N3CCOCC3)cc2)cc(OC)c1OC	i	94	27	.	1	106	0.97
COc1cccc(-c2nnc(NC(=O)c3cccs3)s2)c1	i	.	.	.	0	64	0.99
COc1ccc(-c2ccc(N(C)C)cc2)cc1[C@H]1[C@@H]2C=CCC[C@@]2(C)C(=O)N1Cc1ccccc1	i	.	.	.	.	102	0.83
O=C(COc1ccc(Oc2ccccc2)cc1)NCc1cn2ccccc2n1	i	92	-18	.	7	101	0.79
Cc1nn(CC2CC2)c(=O)n1-c1cccc(Cl)c1	i	.	.	.	-2	102	1
CN(C)S(=O)(=O)N1CCN(c2ccc([N+](=O)[O-])cc2)CC1	i	67	17	.	-11	111	0.94
CCc1cccc(CC)c1NC(=O)C1SC(=Nc2ccccc2C)C(c2nc3ccccc3s2)=C1N (centres undefined)	.	61	11	-2.4	-1	97	.
Cc1ccc(NNC(N)=S)cc1Cl	i	.	.	.	.	97	1
Cc1ccc(O)c(NC(=O)C2CC(c3ccc(F)cc3)=NO2)c1 (centres undefined)	i	62	50	-2.4	-2	108	1
OC(CNC1CCCc2ccccc21)COc1c(Cl)cccc1Cl (centres undefined)	i	116	-35	0.0	-9	111	0.71
CC(C)[C@@H]1C=C(C(=O)O)O[C@H](OCCCCO)C1	i	.	.	.	.	101	0.81
CC/C(O)=C1\C(=O)CC(c2ccccc2)CC1=NCCC(=O)O (centres undefined)	i	.	.	-0.8	-11	101	1.1
Cc1ccc(SC(C)C(=O)Nc2ncn[nH]2)cc1 (centres undefined)	i	63	-8	-1.6	5	104	0.93
O=C(CN1CCN(c2ncccn2)CC1)NCc1ccc2c(c1)OCO2	i	.	.	.	-4	104	1.1
NS(=O)(=O)c1ccc(CCNCc2cccs2)cc1	i	.	.	.	0	97	1.1
O=C1CC(=O)N(CCc2ccccc2)C(=O)N1CCc1ccccc1	i	59	-315	-1.1	12	109	1.1
O=C(NCCCN1CCOCC1)C1COc2ccccc2O1 (centres undefined)	i	231	-6	-1.6	-6	107	0.88
CCc1nn(CCCC(=O)N2CCc3ccccc3C2)c(=O)c2cc3occc3n12	i	.	.	-1.1	-8	105	0.96
CC(C)(C)n1nnnc1CN1CCC(NC(=O)NC2CCCCC2)CC1	i	98	-22	-0.3	-2	30	0.89

Profiles, looked up by structure:
`CCc1nn(CCCC(=O)N2CCc3ccccc3C2)c(=O)c2cc3occc3n12` as listed: HSV augment = i; Insulin prom inh cell count = .; Insulin prom inh = .; GALR2 ag = -1.1; PKD1 kinase inh = -8; RGS16-Gao = 105; HSV augment primary fold = 0.96
`Cc1nn(CC2CC2)c(=O)n1-c1cccc(Cl)c1` as listed: HSV augment = i; Insulin prom inh cell count = .; Insulin prom inh = .; GALR2 ag = .; PKD1 kinase inh = -2; RGS16-Gao = 102; HSV augment primary fold = 1
